# Bioassay records (PubChem)
# Mtb H37Rv = M. tuberculosis H37Rv growth inhibitors, H37Rv strain (AID 1626); M. tuberculosis H37Rv growth inhibition; higher % means a stronger effect; inhibition, % at 10 µM, or IC50 in µM where a hit was titrated; 220,000 compounds, 0.95% hits;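 active = confirmed in a dose series; inconclusive = inhibition above 80% but not taken into the dose series; inactive = below 80% or under 30% at every dose of the series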;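 also: bacteria incubated seven days before Alamar blue readout; 0% = bacteria only wells and 100% = bacteria with antibiotic wells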
# Mtb betalactam = beta-lactam sensitization of Mtb H37Rv. AID 434955. inhibition, % at 25 µM. 330,000 compounds, 0.27% hits. M. tuberculosis H37Rv growth with meropenem, percent inhibition; hits of this screen are not shown here;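 active = about 74% or more and at least 40 points above the plate without the antibiotic, then above 30% in a dose series; inconclusive = first-round hits that could not be retested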;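 also: growth measured after seven days incubation then overnight dye step; 0% = bacteria only wells and 100% = bacteria with antibiotic; twin plates without the antibiotic show which effects depend on it; some results filed as inactive read as strong as hits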
# RecA splice inh = inhibitors of M. tuberculosis RecA intein splicing. P9WHJ3. AID 2221. cell-free RecA intein splicing, fluorescence. inhibition, %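 (about 9 µM by stock and volumes)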. 290,000 compounds, 0.75% hits; in the data active = inhibition above about 30%; inconclusive = no clear call, values can overlap the other calls;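 also: 0% = vehicle wells and 100% = reference inhibitor control wells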
# Target sequence (P9WHJ3 whole entry, looked up, canonical isoform): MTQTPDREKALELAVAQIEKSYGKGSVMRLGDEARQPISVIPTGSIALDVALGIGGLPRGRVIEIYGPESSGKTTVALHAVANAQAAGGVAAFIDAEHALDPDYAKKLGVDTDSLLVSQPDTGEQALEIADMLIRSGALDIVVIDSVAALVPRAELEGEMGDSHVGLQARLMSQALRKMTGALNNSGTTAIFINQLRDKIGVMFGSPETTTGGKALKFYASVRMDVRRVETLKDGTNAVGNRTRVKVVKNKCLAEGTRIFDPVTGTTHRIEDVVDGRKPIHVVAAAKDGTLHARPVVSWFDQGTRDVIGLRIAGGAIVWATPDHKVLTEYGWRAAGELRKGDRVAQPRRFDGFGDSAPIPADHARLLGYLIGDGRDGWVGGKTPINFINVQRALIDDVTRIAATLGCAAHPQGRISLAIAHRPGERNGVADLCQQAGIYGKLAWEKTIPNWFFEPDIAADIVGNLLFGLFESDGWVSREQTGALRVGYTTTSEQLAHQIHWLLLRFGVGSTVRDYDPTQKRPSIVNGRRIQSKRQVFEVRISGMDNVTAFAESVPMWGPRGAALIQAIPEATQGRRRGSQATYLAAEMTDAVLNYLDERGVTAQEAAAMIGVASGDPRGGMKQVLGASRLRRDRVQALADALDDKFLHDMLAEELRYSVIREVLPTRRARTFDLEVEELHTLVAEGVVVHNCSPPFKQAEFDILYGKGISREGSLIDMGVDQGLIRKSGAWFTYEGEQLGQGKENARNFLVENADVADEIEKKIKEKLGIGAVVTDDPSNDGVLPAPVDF
# YopH inh = inhibitors of Yersinia enterocolitica YopH tyrosine phosphatase; fluorescence Ex485/Em525; inhibition, %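 (about 10 µM by stock and volumes)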; 140,000 compounds, 0.16% hits; AID 898;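 active = inhibition of 50% or more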;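 also: controls were vehicle for no effect and minimum signal wells for full effect; inactives centre near -20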
# Arbovirus inh = antivirals against arbovirus infection; arbovirus infection cell-based antiviral screen; inhibition, % at 10 µM; 200,000 compounds, 0.37% hits;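 active = inhibition from about 30%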;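 also: bluetongue infection of BSR cells; cell survival read as ATP light after 72 h; 0% = infected wells without compound and 100% = uninfected wells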
# Arbovirus inh repeat = further read-out of Arbovirus inh, marked with its call; inhibition, %; measured here: 10K subset replicate screen; many hits read low in the repeat;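 first of two repeat runs on a subset; 0% = infected and 100% = uninfected wells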
# * = called active by the depositor; ? = inconclusive; nt = not tested or not shown.
SMILES,Mtb H37Rv,Mtb betalactam,RecA splice inh,YopH inh,Arbovirus inh,others
COc1ccc(-c2nnn(CC(=O)N(CCCN3CCOCC3)C(C(=O)NC3CCCC3)c3ccc(C)o3)n2)cc1 (configuration not stated),0.6%,-3.6,-0.9,nt,4.7,
CCCCC(O)(CCN1CCOCC1)c1ccc(Cl)cc1 (configuration not stated),-6.8%,-7.2,0.0,-28.0,7.3,
COc1ccccc1C(=O)NNC(=O)c1sccc1-n1cccc1,8.6%,1.7,0.8,nt,-5.5,
CC(=O)N(C(C)=O)c1ncc2c([nH]c3ccccc32)c1C#N,-0.1%,4.2,nt,13.1,0.8,Arbovirus inh repeat=-11.1
Cc1ccccc1-c1nnc(-c2ccccc2)o1,11.2%,65.6,4.1,-32.5,-5.3,Arbovirus inh repeat=0.0
CCC1Oc2ccccc2N(CC(=O)NCCCN2CCCCC2CC)C1=O (configuration not stated),-4.2%,-5.3,-2.0,-12.6,3.1,
COc1ccc(C2/C(=C(/O)c3ccc(Br)cc3)C(=O)C(=O)N2C)cc1OC (configuration not stated),nt,0.5,-1.0,nt,nt,
CCc1ccc(NC(=O)C(=O)N/N=C(\C)CC(=O)Nc2ccc(OC)cc2)cc1,67.7%,77.5,-1.5,nt,0.5,
COc1ccc(CCC(C)NCC2CCCCC2)cc1 (configuration not stated),-1.4%,-5.3,-1.9,-18.1,-1.4,
CC(=O)c1nn(-c2cccc(C)c2)cc1C(=O)c1cccc(Br)c1,nt,-5.8,4.5,nt,nt,
CCCC1CCC(=NNC(=O)OC(C)(C)C)CC1 (configuration not stated),-10.7%,7.4,2.1,-27.0,-7.7,
CCS(=O)(=O)C1=NSC2=NC(=O)/C(=C\c3cc(C)n(-c4cccc(OC)c4)c3C)C(=N)N21,1.0%,-0.9,-8.3,nt,2.0,
COc1ccc(-n2c(=S)[nH]c3cc(C(=O)NCCCN4CCCC4=O)ccc3c2=O)cc1OC,-1.5%,15.1,1.1,-4.3,-1.6,
COc1ccc(/C=C/c2c(-c3cccc(C)c3)oc3ccc(-c4ccc5c(c4)OCO5)cc23)cc1,nt,-7.4,0.2,nt,nt,
O=C(COC(=O)c1cc(S(=O)(=O)N2CCCCC2)ccc1N1CCOCC1)NC1CCCCC1,17.6%,-5.4,-2.2,-30.6,-2.3,

# Overlap with the part before: 5 compounds, then new ones.
SMILES,Mtb H37Rv,Mtb betalactam,RecA splice inh,YopH inh,Arbovirus inh,others
CCCC1CCC(=NNC(=O)OC(C)(C)C)CC1 (configuration not stated),-10.7%,7.4,2.1,-27.0,-7.7,
CCS(=O)(=O)C1=NSC2=NC(=O)/C(=C\c3cc(C)n(-c4cccc(OC)c4)c3C)C(=N)N21,1.0%,-0.9,-8.3,nt,2.0,
COc1ccc(-n2c(=S)[nH]c3cc(C(=O)NCCCN4CCCC4=O)ccc3c2=O)cc1OC,-1.5%,15.1,1.1,-4.3,-1.6,
COc1ccc(/C=C/c2c(-c3cccc(C)c3)oc3ccc(-c4ccc5c(c4)OCO5)cc23)cc1,nt,-7.4,0.2,nt,nt,
O=C(COC(=O)c1cc(S(=O)(=O)N2CCCCC2)ccc1N1CCOCC1)NC1CCCCC1,17.6%,-5.4,-2.2,-30.6,-2.3,
O=C1COC(c2ccccc2)=CN1Cc1ccccc1,nt,2.5,2.9,nt,nt,
Cc1[nH]c2ccc(C(=O)NCC(C)(C)N3CCOCC3)cc2c1C,-3.5%,0.8,2.9,nt,-2.6,
CCOC(=O)c1[nH]nc(N)c1NC(=O)c1ccc(Cl)cc1Cl,-5.6%,-11.0,-3.6,-19.4,2.3,
CCOC(=O)C(=O)N/N=C/c1cccc(Br)c1,-11.5%,-1.8,-0.6,nt,nt,
N=c1sccn1CC(=O)NCCc1ccc(Cl)cc1,-5.0%,-6.1,nt,19.7,7.9,
CCCCn1c(CCC(=O)O)nc2c1c(=O)[nH]c(=O)n2CCC,5.2%,-6.8,-1.9,-24.4,2.7,
OCCC1CN(Cc2c(O)ccc3ccccc23)CCN1CCc1ccccc1 (configuration not stated),7.1%,0.1,-1.8,nt,-5.7,
Cc1[nH]c2ccc(C(=O)OCCN(C)C)cc2c1C,-4.8%,-1.0,0.3,6.8,-0.7,
O=C(/C=C/c1cccc([N+](=O)[O-])c1)NCCSc1ccccc1,-1.8%,-7.2,4.7,-3.2,6.4,
CCOc1ccc(NC(=O)N2CCC(C(=O)c3ccc(F)cc3)CC2)cc1,-14.7%,7.6,-7.0,13.3,-5.0,
COC(=O)c1cc(NC2c3ncccc3C(=O)N2Cc2ccccc2)cc(C(=O)OC)c1 (configuration not stated),1.5%,-7.5,0.8,6.3,7.1,
O=C(COc1ccc([N+](=O)[O-])cc1)N(Cc1ccccc1)Cc1ccccc1,9.9%,?,-0.4,-18.3,1.9,
O=Cc1cn(CC(=O)N2CCOCC2)c2ccccc12,0.8%,1.7,0.1,1.1,-0.7,
C=CC[N+](C)(C)CCN1C(=O)C2C(c3ccccc3)C=CC(c3ccccc3)C2C1=O (configuration not stated),5.1%,-3.1,-1.4,nt,4.0,
COc1ccc(C2C(C#N)=C(N)Oc3cc(C)n(Cc4ccncc4)c(=O)c32)cc1 (configuration not stated),4.8%,-4.2,-6.0,-25.9,1.9,
O=C(Nc1cccc(O)c1)c1noc2c1CCCCC2,-3.7%,1.6,-0.6,-2.4,12.9,
COC(=O)C[N+](C)(C)C/C=C\c1ccccc1,8.2%,4.1,0.4,nt,-3.2,
O=C(COC(=O)[C@@H]1CCCN1S(=O)(=O)c1ccccc1F)c1ccccc1,-5.9%,-4.2,12.8,nt,2.9,
Cc1ccc(NC(=O)COC(=O)c2ccc3c(c2)NC(=O)C2CCCN32)cc1C (configuration not stated),-8.7%,nt,nt,-16.4,0.4,
CC1(C)CCC[C@@]2(C)CC=C(C(=O)O)[C@@H]3C[C@]312,nt,-2.9,1.4,nt,nt,
COc1ccc(C)cc1NC(=O)CSc1ccc(-c2ccco2)nn1,nt,-6.7,1.4,nt,nt,
CCc1ccc(-c2cc(C)no2)cc1S(=O)(=O)NCCc1ccccc1,nt,3.5,11.8,nt,nt,
Cc1cccc(/C=C/c2nc3ccccc3c(=O)[nH]2)c1,-5.6%,-2.0,1.8,nt,-18.1,
COc1ccc(CC2C(=O)OC(C)(C)OC2=O)c(Cl)c1OC,nt,-10.6,2.2,nt,nt,
CCC(=O)NCCc1nc2cc(NC(=O)Nc3ccccc3)ccc2n1C,nt,0.7,-0.7,nt,nt,
CC1CCN(S(=O)(=O)c2cccc(C(=O)N(C)C3CCS(=O)(=O)C3)c2)CC1 (configuration not stated),-11.8%,-1.0,2.9,-20.9,8.5,
COc1ccc(NC(=O)c2nc[nH]c2C(=O)N2CCN(c3ccccc3)CC2)cc1,-0.5%,-4.0,-0.4,nt,nt,
O=C(c1ccc(Cl)cc1[N+](=O)[O-])N1CCN(c2ccccn2)CC1,-5.1%,-0.5,-5.4,nt,-2.9,
NNC(=O)c1ccc(COc2ccc3c(c2)CCC3)cc1,?,59.0,17.9,15.6,-10.9,
Cc1nc2n(COCCO)cnn2c(=O)c1Br,-3.6%,0.1,-0.7,nt,7.6,
CCC(=O)c1cc2c(cc1NC(=O)c1ccc(C)cc1)OCCO2,-3.9%,-5.1,-1.1,-8.2,-4.2,
CC(C)(C)c1ccc(/C=C/C(=O)NC2=NCCS2)cc1,?,82.9,0.1,8.9,27.5,
COCCCNC(=O)CSc1c2c(nc3ccc(Cl)cc13)CCCC2,-0.8%,1.0,17.3,nt,8.2,
CCCCP(=O)(CCCC)c1ccccc1C(=O)O,-5.6%,32.1,1.2,-28.6,3.8,
Nc1nc(SC23CC4CC(CC(C4)C2)C3)ns1,13.9%,19.8,-2.3,nt,nt,
Cc1noc(NS(=O)(=O)c2ccc(NC(=O)CCC3CCCC3)cc2)c1C,-6.0%,3.6,0.4,-18.2,0.5,
Nc1c(Cl)ncnc1N1CCCC1,-5.8%,-3.4,0.5,nt,1.5,
COc1cccc(CCNC(=O)CCc2nnc(Cc3cc(OC)ccc3OC)o2)c1,nt,5.5,3.5,nt,nt,
Nc1nonc1-c1nc2ccccc2n1Cc1ccc(F)cc1Cl,nt,-6.2,-0.5,-42.8,-10.5,
COc1ccccc1CNC(=O)CN(C)S(=O)(=O)c1cccc2cccnc12,-1.9%,-7.0,-3.0,nt,nt,
COCCN(C(=O)CN1CCN(S(=O)(=O)c2ccc(F)cc2)CC1)c1c(N)n(Cc2ccccc2)c(=O)[nH]c1=O,-8.3%,0.4,0.7,-29.3,5.9,
Cc1ccc(N2CC(C(=O)Nc3cccnc3)CC2=O)cc1C (configuration not stated),nt,-1.6,4.8,nt,nt,
O=C(NC1CCC(O)CC1)c1ccc2c(c1)S(=O)(=O)N=C1CCCCCN12 (configuration not stated),nt,-2.7,-2.3,nt,nt,
O=C(O)c1ccccc1C(=O)c1ccc(Sc2ccc(Cl)cc2)c([N+](=O)[O-])c1,-8.2%,-15.8,9.4,nt,nt,
O=C(Nc1ccc(F)c(Cl)c1)NC1CC1,5.2%,-5.0,0.5,nt,-0.4,
O=C(O)c1ccc(N2C(=O)/C(=C/C=C/c3ccccc3)SC2=S)cc1,-4.9%,10.0,4.0,nt,-2.2,
CC(=O)Nc1ccc(Nc2cc(C(C)C)nc3c(-c4ccccc4)c(C)nn23)cc1,5.08µM*,99.7,13.7,nt,nt,
COc1ccccc1N1CCN(CC(=O)NCC2CCCO2)CC1 (configuration not stated),1.8%,-0.4,-0.2,14.6,4.7,
C=CCN(c1ccccc1)S(=O)(=O)c1cccc(C(=O)Nc2ncccc2C)c1,nt,-11.4,1.9,nt,nt,
Cc1ccc2[nH]c(=O)c(CN(CC3CCCO3)C(=S)Nc3ccccc3)cc2c1 (configuration not stated),-0.1%,-0.7,-1.7,-21.3,-6.0,
Cc1ccc(C(=O)CSc2nc3ccccc3c(=O)[nH]2)cc1C,4.7%,-1.7,-5.4,nt,-2.4,
COc1ccc(OCc2cc(C(=O)NC3CCOCC3)no2)c2ccccc12,nt,2.0,29.6,nt,nt,
COc1ccccc1N(C)S(=O)(=O)c1ccc(C(=O)OCC(=O)N2CCC2)cc1,0.9%,-6.9,-5.2,nt,-15.3,
CCOc1cc(/C=N/NC(=O)C(C)Sc2ccccc2)ccc1O (configuration not stated),-1.5%,1.0,1.5,nt,-5.7,
Cc1ccsc1C(=O)OCc1nc2ccsc2c(=O)[nH]1,nt,3.7,-0.3,nt,nt,
CC(=O)n1nc(-c2ccc(C)cc2)nc1NCc1ccco1,-2.1%,nt,-1.5,nt,-5.3,
COc1ccc2c(CC(=O)OCC(=O)Nc3ccc(S(N)(=O)=O)cc3)coc2c1,-5.8%,-4.5,1.0,nt,nt,
CC(C)c1ccc(CCNC(=O)c2cccc(S(=O)(=O)N3CCN(C)CC3)c2)cc1,nt,-1.1,-2.7,nt,nt,
CC(C)NC(=S)N1CCC(Cc2ccccc2)CC1,4.7%,-4.1,2.3,nt,3.1,
CS(=O)(=O)c1ccc2nc(NC(=O)CC3CCCC3)sc2c1,-1.4%,14.2,-1.9,-43.4,-9.1,
# More structures follow:
SMILES,Mtb H37Rv,Mtb betalactam,RecA splice inh,YopH inh,Arbovirus inh,others
COc1ccc(S(=O)(=O)NC(C(C)C)C(C)C)cc1OC,-2.7%,-10.6,-0.2,-14.5,1.1,
COc1cc(C(=O)NCCCNc2nc3cc(C)c(C)cc3cc2C#N)cc(OC)c1OC,0.9%,5.5,-7.4,nt,-3.0,
CCOC(=O)CN(C(=O)CSc1nnc2c(n1)[nH]c1ccc(OC)cc12)c1ccc(F)cc1,4.4%,-4.8,1.3,-16.8,-9.5,
CCOC(=O)c1cnc2c(C)c(-c3ccccc3)[nH]n2c1=O,3.0%,11.5,-1.1,-51.4,2.9,
CC1=C(C)C(=O)N(CCC(=O)O)C1=O,-2.7%,8.3,1.8,-32.4,-1.9,Arbovirus inh repeat=-5.0
CCOC(=O)C1=C(C)N=C2SCCC(=O)N2[C@@H]1c1cccs1,-7.4%,-0.7,0.5,nt,nt,
O=S(=O)(Nc1nnc(C(F)(F)F)s1)c1ccc(Cl)cc1,nt,-4.8,-2.8,nt,nt,
Cc1ccc(CCNC(=O)c2nc(CS(=O)(=O)c3ccc(Cl)cc3)no2)cc1,nt,6.0,-1.6,nt,nt,
COc1ccc(/C=C/C(=O)ONC2=NCCCCC2)cc1OC,-0.5%,-0.6,2.1,nt,-0.2,
Cc1cc(-c2csc(N)n2)c(C)n1Cc1ccccc1,0.0%,-2.1,nt,nt,-10.2,
O=C(Nc1ccn(Cc2ccccc2F)n1)c1ccc(COc2ccccc2Cl)cc1,nt,99.0,1.5,1.6,-39.3,
COc1ccc(OC)c(-n2c(C)ccc2-c2ccc(S(C)(=O)=O)cc2)c1,-3.3%,-5.5,2.1,-19.2,-5.5,

# These rows are one share of the data, so the mix of outcomes need not match the whole.
